T cruzi repl: T. cruzi replication inhibition; inhibition, % (concentration not given with the values); actives 1.4% (n = 300,000); T. cruzi beta-gal in NIH3T3, luminescence, 90 h;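 active = mean inhibition across valid replicates above about 55%, limit read from the data; inconclusive = mean below that limit but half or more replicates reach it; inactive = mean below it, under half of replicates reach it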;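 note: signal also drops with host cell toxicity which is not excluded here; 0% = plate median of DMSO wells and 100% = zero luminescence signal; higher percent means less beta-gal luminescence so fewer parasites; stock transfer was 50 nL into about 50 µL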
Bfl-1 A1 inh: inhibitors of the anti-apoptotic protein A1, read as caspase activation; MEF A1-2A-BIM cells, Caspase-Glo 3/7 luminescence, 3 h; percent of clofoctol response, vehicle zero; caspase activation, % (test concentration not listed); actives 0.066% (n = 330,000);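 active = over half of replicate activation scores above 10%, or exactly half above 10 with the replicate mean above 10; inconclusive = replicate mean below 10 yet half the replicates above 10; inactive = over half of replicates below 10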;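 note: wells of about 30 µL received 50 nL stock; many hits fall short of the cut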
Calb FLC: C. albicans growth modulation with fluconazole; C. albicans CaCi-2 (fluconazole-resistant clinical isolate) + fluconazole, Alamar Blue growth, 48 h; growth inhibition, % (concentration not given with the values); actives 0.57% (n = 300,000); AID 1979;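 active = most replicates above 75%; inconclusive = exactly half above 75%; inactive = most below 75%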;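 note: all wells also contain fluconazole at 8 µg/ml as a sub-toxic cotreatment; 0% = median of DMSO wells and 100% = median of geldanamycin control wells; wells of about 8 µL received 7.5 nL stock; the first replicate is given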
MLL AF4-AF9 inh: inhibitors of human MLL-AF4/AF9 interaction; AID 651704; actives 0.47% (n = 350,000); P42568; inhibition, % at 10 µM; AlphaScreen, biotin-AF4 peptide binding to FLAG-AF9;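 active = every replicate reaching a set inhibition limit, whatever the replicate mean, cut at about 25% in these data; inconclusive = mean inhibition reaches that limit but some replicates miss it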;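 note: 0% = plate neutral control median and 100% = total signal loss; the record names both 10 and 1 µM as test concentration; the first replicate is given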
Target sequence (P42568 whole entry, looked up): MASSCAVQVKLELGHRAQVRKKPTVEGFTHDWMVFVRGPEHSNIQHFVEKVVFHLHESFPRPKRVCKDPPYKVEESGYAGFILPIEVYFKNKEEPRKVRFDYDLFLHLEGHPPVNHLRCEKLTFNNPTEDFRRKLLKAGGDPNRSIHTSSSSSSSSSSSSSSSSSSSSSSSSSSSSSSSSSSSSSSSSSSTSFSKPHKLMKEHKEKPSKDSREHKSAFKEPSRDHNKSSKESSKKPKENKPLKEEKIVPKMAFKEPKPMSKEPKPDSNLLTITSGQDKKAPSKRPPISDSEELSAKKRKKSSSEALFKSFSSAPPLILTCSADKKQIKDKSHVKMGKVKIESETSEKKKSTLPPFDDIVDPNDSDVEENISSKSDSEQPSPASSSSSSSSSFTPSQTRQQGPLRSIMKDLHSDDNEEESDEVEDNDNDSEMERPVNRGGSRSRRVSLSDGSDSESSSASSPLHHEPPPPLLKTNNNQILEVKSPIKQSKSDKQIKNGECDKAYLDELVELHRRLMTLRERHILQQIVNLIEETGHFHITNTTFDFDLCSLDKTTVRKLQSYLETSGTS
Vif A3G: inhibitors of Vif binding to APOBEC3G peptide, primary screen, biochemical, TR-FRET, GST-Vif 1-94, biotin-A3G peptide, dose response retest (AID 1117319); TR-FRET GST-Vif / biotin-A3G peptide binding; higher % means a stronger effect; test concentration not given here; strong numbers were not always called active; inhibition, %, or IC50 in µM where a hit was titrated; actives 0.57% (n = 260,000);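 active = above the screen mean plus three standard deviations and confirmed in dose response; inconclusive = results disagree or hit not tested in dose response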;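 note: Vif residues 1-94 fused to GST binding biotinylated APOBEC3G peptide 110-148; 0% = full assay without inhibitor and 100% = GST in place of GST-Vif; retest series ran down from 100 µM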
Beta apoptosis: blocks beta cell apoptosis. INS-1E cytokine-induced death, ATP luminescence, 48 h; percent of positive-control rescue, neutral wells zero. protection from apoptosis, % (concentration not given with the values). actives 0.8% (n = 300,000);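 active = all replicates at 75% or more, or half of them and the mean; inconclusive = half reach 75% but not the mean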;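 note: 0% = cytokine-treated negative control wells and 100% = positive control rescue; higher means more ATP so stronger rescue from cytokine killing; wells of about 40 µL received 100 nL stock; the first replicate is given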
Ecoli rRNA inh: inhibitors of bacterial rRNA selective over humanized ribosomes; actives 1.6% (n = 350,000); E. coli WT GFP vs humanized-ribosome RFP mutants, fluorescence, 24 h; stronger effect = lower value; DMSO median 0, no signal -100; GFP signal change (wild-type ribosome), % (test concentration not listed); AID 720706;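 active = significant combined selectivity score with lowered wild-type GFP, culture density cut under 30%, mutant RFP and density less affected; inactive = any of these conditions unmet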; note: one replicate is shown; some compounds called inactive have numbers as strong as hits
RanGTP-Impb inh: disruptors of Ran-importin-beta complex formation – biochemical, FRET, CFP-Ran, YFP-importin-beta, homogeneous, primary screen | cell-free CFP-Ran/YFP-importin-beta FRET ratio | inhibition, % (concentration not given with the values) | actives 1.1% (n = 300,000);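 active = most replicates above 15%; inconclusive = exactly half above 15%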;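 note: 0% = DMSO wells and 100% = Ran loaded with GDP instead of GTP; wells of about 40 µL received 100 nL stock; the first replicate is given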
Ecoli rRNA inh OD600: further read-out of Ecoli rRNA inh, marked with its call; OD600 change, %; measured here: OD600 growth;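 optical density of the mix in the first replicate; 0 = DMSO median and -100 = no signal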
Ecoli rRNA inh RFP: second read-out of Ecoli rRNA inh, no call of its own (marks repeat the call); RFP signal change, %; measured here: RFP humanized mutant strains;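 first replicate; 0 = DMSO median and -100 = no signal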
* marks the source's active call; other numbers are inactive results; u = inconclusive; x = no result given. Only part of the results is shown (hit frequency here may not be typical).

Every second line gives: T cruzi repl, Bfl-1 A1 inh, Calb FLC, MLL AF4-AF9 inh, Vif A3G, Beta apoptosis, Ecoli rRNA inh, Ecoli rRNA inh OD600, Ecoli rRNA inh RFP, RanGTP-Impb inh
> O=C(CCCN1C(=O)/C(=C/c2cccc(Br)c2)SC1=S)NCCCN1CCOCC1
    -5, 0.2, -1, 3.0, x, -13, x, x, x, -5.8
> Cc1ccn2c(C(=O)N/N=C\c3ccccc3[N+](=O)[O-])c(C)nc2c1
    9, -0.3, -11, x, x, 0, x, x, x, -6.7
> CC(C)C[C@@H](C(=O)NC1CCN(Cc2ccccc2)CC1)N1C(=O)N2CCc3c([nH]c4ccccc34)[C@@]2(C)C1=O
    65*, -0.1, 1, 37*, x, 7, 8, -24, 23, 6.6
> COc1ccccc1-n1cnc2cc(NCc3ccco3)ccc21
    -3, 0.1, 15, x, 27%, 2, x, x, x, 11
> CCOc1ccc2oc(C(=O)OCC(=O)N3CC(C)OC(C)C3)c(C)c2c1 (centres undefined)
    x, -1.5, x, 1.3, -1%, -5, 9, 12, 3.2, x
> COc1ccc(S(=O)(=O)NN=C2CCCC2)cc1
    -3, 0.4, 25, x, 3%, -1, x, x, x, 4.5
> Cc1nc2ccccn2c1C(=O)CSc1cccc(Cl)c1
    15, 0.9, 2, 0.7, -5%, -2, -57, -76, -19, 11
> COc1ccc(N2C(=O)CC(N3CCC(C(N)=O)CC3)C2=O)cc1 (centres undefined)
    -17, 0.3, -5, x, 1%, -3, x, x, x, -0.5
> CCn1c(COc2ccc(Cl)cc2)nnc1SCc1nc2ccccc2[nH]1
    24, -0.9, -1, x, 3%, 8, x, x, x, -0.6
> O=c1c2cc3c(cc2[nH]c(=S)n1Cc1ccco1)OCO3
    -31, 0.4, -1, x, 22%, 5, x, x, x, 0.8
> CCOC(=O)C1=C(COC(=O)c2cccc(N(C)C)c2)NC(=O)NC1C (centres undefined)
    -3, 0.1, 2, 5.1, 1%, 1, -3, -4, 4.0, 2.1
> CNC(=O)NC(=O)COC(=O)CCCSc1nc2ccccc2s1
    -2, -1.9, 3, -0.1, -28%, -7, x, x, x, 0.3
> CCCc1nn2c(=O)cc(CSCC(=O)Nc3nnc(CC)s3)nc2s1
    16, 1.4, 1, 0.1, x, -4, 3, 3, -1.6, 4.1
> CN(C)C(=O)c1ccc(-c2n[nH]c(=O)c3ccccc23)cc1
    -2, 0.6, -16, -1.7, x, -4, 7, 16, -1.8, 5.1
> COCc1cc(C)nc2sc(C(=O)Nc3ccc(OC)cc3)c(N)c12
    3, -0.6, 10, -3.9, x, 2, -18, -21, -1.4, u
> COc1ccc(/C=N/n2c(C)nc3c([nH]c4ccccc43)c2=O)cc1CN1CCCC(C)(C)C1
    34, 0.5, 3, 7.9, 0%, 26, 9, 2, 3.5, -3.5
> O=C(NCCN1CCN(C(=O)c2cccs2)CC1)c1cccs1
    -12, 0.0, -6, x, -4%, 3, x, x, x, 0.3
> COc1ccc(C2CC(c3cccs3)=NN2c2ccc(F)cc2)cc1OC (centres undefined)
    6, 0.3, -3, -30, x, 8, -1, 1, -1.0, 53*
> CC(=O)C(Cc1ccccc1)NC(=O)CN1CCN(Cc2ccccc2)CC1 (centres undefined)
    9, 0.5, -11, 1.9, -8%, 0, 8, 4, 1.7, -1.3
> COc1ccc(CNc2ccc(C(=O)O)cc2)cc1
    -6, -2.1, -13, x, 12%, -1, x, x, x, -0.7
> CN(CC(=O)NCc1ccccc1Cl)S(=O)(=O)c1cccs1
    -4, 0.0, 4, -0.9, x, -1, -1, -3, -0.7, -1.0
> COc1ccc(N2CC(NS(=O)(=O)c3cccnc3)CC2=O)cc1OC (centres undefined)
    -3, 0.0, 5, -11, -5%, 0, 10, 16, -2.0, 2.8
> CCC(C)Oc1nc(C)cc(C)c1S(=O)(=O)c1ccccc1C (centres undefined)
    25, -0.6, -5, x, -1%, -4, x, x, x, 4.3
> O=C(CSc1nnc(-c2ccc(Br)cc2)n1CCc1ccccc1)NC1CCS(=O)(=O)C1 (centres undefined)
    -2, 0.9, -7, 1.2, x, -5, -11, -15, 0.4, 6.5
> O=C(c1ccc(OC2CCN(C(=O)C3CC3)CC2)cc1)N(CCO)Cc1ccccc1
    -2, 0.4, -10, -1.2, 3%, -4, -1, -3, -1.0, -2.3
> COc1ccc2c(c1)-c1c(sn(-c3ccccc3)c1=S)C(C)(C)N2
    51, 1.0, u, x, 8%, 0, x, x, x, 8.7
> CC1(C)C2CCC1(C)C(OC(=O)CC(=O)O)C2 (centres undefined)
    12, 0.6, -15, -12, 4%, 2, 16, 2, 0.0, 3.8
> Cc1cccc2cc(CN(CCN3CCOCC3)C(=O)Nc3ccccc3F)c(=O)[nH]c12
    6, 0.2, 26, 0.0, -3%, -4, 9, -1, 0.4, 0.3
> COc1cccc(Cn2nnc(C(=O)Nc3ccc(C)cc3)c2N)c1
    -10, -0.3, 4, 0.7, u, 5, 4, 12, 0.3, -0.6
> COC(=O)c1oc2ccc(Br)cc2c1NC(=O)CCCN1C(=O)c2ccccc2C1=O
    -13, 0.5, -1, -16, -4%, 21, 4, 15, 1.7, 6.3
> Cc1ccc(N/C=C2/Sc3ccccc3NC2=O)cc1
    59*, -4.5, 18, x, 17%, 2, x, x, x, -1.6
> CON/C=C(\C=Nc1ccc(C(F)(F)F)cc1)c1ncc(C(F)(F)F)cc1Cl
    -5, 0.1, 8, x, 5%, 5, x, x, x, u
> c1ccc(COc2nsnc2N2CCOCC2)cc1
    -6, -0.3, 0, 3.9, -2%, 0, 0, -14, -6.4, u
> COc1cc(C2=NOC(C(=O)N3CCCCCC3)C2)cc(OC)c1OC (centres undefined)
    13, -0.1, 2, x, 23%, -1, x, x, x, -3.4
> O=C(O)c1ccc(CSc2nnc(-c3cccnc3)n2-c2ccc(Br)cc2)cc1
    7, -0.8, 18, u, u, -3, -1, 2, 1.2, 3.1
> CCC(C)(C)n1nnnc1C(c1cc2cc(C)ccc2[nH]c1=O)N1CCCc2ccccc21 (centres undefined)
    -3, -0.4, -7, 7.9, 93µM*, -6, 0, 6, 16, u
> COC(=O)c1ccc(C(=O)OC)c(=O)[nH]1
    9, 1.0, -7, -19, 0%, -2, 16, 20, 5.4, 3.7
> Cc1cc([N+](=O)[O-])nn1CCCC(=O)NC(C)c1ccccc1 (centres undefined)
    9, -0.6, 1, 4.9, 2%, 0, 1, -23, -2.7, -1.7
> Cc1oncc1-c1csc(-c2ccccc2)n1
    4, -0.7, -25, -1.7, -6%, -5, 10, 6, 5.5, 4.8
> CCCCC(=O)NC(c1ccc(C(C)C)cc1)c1ccc2cccnc2c1O (centres undefined)
    44, 0.4, -2, -0.1, x, x, 12, 13, -0.1, 0.4
> CCOC(=O)CCc1c(C(=O)OCC)[nH]c(CC)c1C(=O)OCc1ccccc1
    12, -0.5, -1, 2.0, -6%, 9, -2, 0, -1.8, -1.0
> N#Cc1nc(-c2ccccc2F)oc1NCCc1ccccc1
    28, 0.4, 21, x, -5%, 7, x, x, x, 3.9
> CCOC(=O)C(=O)NCc1ccc(/C=C2/N=C(C)C(C(=O)OCC)=C2O)o1
    -3, 0.1, 0, -0.9, 6.2µM*, 5, 13, 2, -0.4, 4.7
> CC(OC(=O)/C=C/c1ccccc1)C(=O)NC1CCCCC1C (centres undefined)
    x, -2.4, x, 2.5, -1%, -5, 3, 18, -2.2, x
> CC1(C)Nc2ccccc2N(CC(=O)N2CCCCC2)C1=O
    11, -0.1, 7, x, 7%, -3, x, x, x, -2.0
> O=C(COc1ccc(Br)cc1)NCCCNC(=O)c1cnccn1
    0, 0.7, 3, -2.0, x, -10, 1, -8, -0.2, 2.4
> Cc1ccc(NC(=O)/C(C#N)=C/c2cccs2)c(C)c1
    -10, -1.6, -7, x, 1%, 2, x, x, x, -0.3
> O=C(Nc1ccccc1Br)C1CCN(C(=O)Cc2ccccc2)CC1
    -4, 0.0, -8, x, x, 4, x, x, x, 0.6
> CCn1c(=O)c(=O)[nH]c2cc(C(=O)N(C)Cc3ccc(OC)c(F)c3)ccc21
    -7, -0.8, 1, 2.0, -1%, -14, -3, 1, 6.9, -0.2
> CC(=O)N1CCC(=NNc2ccc(S(=O)(=O)N3CCOCC3)cc2[N+](=O)[O-])CC1
    9, 0.0, 3, -4.8, x, -6, 5, 11, -2.1, 3.7
> COC(=O)C1Cc2c([nH]c3ccccc23)CN1 (centres undefined)
    -3, 0.9, 0, x, 8%, 4, x, x, x, -1.0
> CC(=O)O/C(=C\c1cn(C(C)=O)c2ccccc12)C(=O)O
    -4, x, -6, -18, x, x, 2, -4, -7.1, -0.6
> COc1ccc2c(c1)C(C1=C(O)CC(C)(C)CC1=O)C1=C(CC(C)(C)CC1=O)O2 (centres undefined)
    x, 0.7, 32, x, 0%, 2, x, x, x, -1.5
> C=Cc1ccc(C(=O)N2CCCC(Nc3ccc4c(c3)OCCO4)C2)cc1 (centres undefined)
    -5, x, 5, 7.7, x, x, -3, -18, -3.8, u
> Cc1nn(C)cc1CNC(=O)C1(C)CC1(Cl)Cl (centres undefined)
    -7, 0.0, 25, x, 0%, -7, x, x, x, -0.6
> CC(C)CC1NC(=O)N(CC(=O)N2CCCc3ccccc32)C1=O (centres undefined)
    8, 0.9, -4, -1.0, -3%, -4, 10, 4, -2.1, 0.8
> Cc1ccc(S(=O)(=O)/N=C2\SC(CC(=O)Nc3ccc(F)cc3)C(=O)N2c2ccccc2)cc1 (centres undefined)
    -10, 0.0, 0, x, -1%, -3, x, x, x, u
> Cc1nn(CC(=O)NC2CC2)c(C)c1S(=O)(=O)NC(C)(C)C
    x, 1.1, x, -1.9, -9%, -2, 5, 4, -0.6, x
> Cc1cc(NC(=O)c2ccco2)ccc1NC(=O)c1ccco1
    -9, x, 2, 2.1, -6%, x, 1, 8, -2.7, 2.0

Vif A3G, hit marks shown above
structure,MLL AF4-AF9 inh,Vif A3G,Ecoli rRNA inh,Ecoli rRNA inh OD600,Ecoli rRNA inh RFP,RanGTP-Impb inh
CCC(C)(C)n1nnnc1C(c1cc2cc(C)ccc2[nH]c1=O)N1CCCc2ccccc21 (centres undefined),7.9,93µM*,0,6,16,u
CCOC(=O)C(=O)NCc1ccc(/C=C2/N=C(C)C(C(=O)OCC)=C2O)o1,-0.9,6.2µM*,13,2,-0.4,4.7

Arranged by value in RanGTP-Impb inh (smallest number first): three of the compounds above.
SMILES | RanGTP-Impb inh
O=C(NCCN1CCN(C(=O)c2cccs2)CC1)c1cccs1 | 0.3
O=C(Nc1ccccc1Br)C1CCN(C(=O)Cc2ccccc2)CC1 | 0.6
COc1ccccc1-n1cnc2cc(NCc3ccco3)ccc21 | 11

Bioassay records as filed in PubChem BioAssay.
